StopGo reporter: FMDV 2A StopGo reporter, luciferase signal; human cells with a luciferase reporter of 2A StopGo recoding; control for the full effect not named in the record; hit rate 1.2% among 410,000; Potency, µM (highest dose often 57.9 µM), for inactives: top-dose signal change, negative = less light; AID 1159524; active = well fitted falling curve with a large enough effect; inconclusive = small, poorly fitted or top-dose-only effect; inactive = no such curve, though single readings can be large or run the other way; tested in HEK293T cells; also: % is scaled to controls: 0 for no effect and ±100 for the full control effect; nearly all actives have a fitted effect of over 45% in size; luciferase light after 4 h
SARS PLpro yeast: inhibitors of SARS-CoV papain-like protease in yeast; S. cerevisiae expressing SARS-CoV PLpro, growth rescue; control for the full effect not named in the record; Potency, µM (top dose mostly 32.9 µM), for inactives: top-dose activity, positive = growth rescue; hit rate 0.19% among 330,000; AID 485353; active means well fitted rising curve with a large enough effect; inconclusive means small, poorly fitted or top-dose-only effect; inactive means no such curve, though single readings can be large or run the other way; also: 0% is about no effect; nearly all actives have a fitted effect of over 55% in size; growth read by luminescence after 48 h
RE007 growth inh: less growth of the S. pombe RE007 Vpr strain. S. pombe RE007 Vpr strain, BacTiter-Glo ATP luminescence, 24 h; control for the full effect not named in the record. Potency, µM (titrated, usually from 92.2 µM), for inactives: top-dose activity change, negative = less growth. hit rate 0.21% among 360,000. AID 651644; active = well fitted falling curve with a large enough effect; inconclusive = small, poorly fitted or top-dose-only effect; inactive = no such curve, though single readings can be large or run the other way;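 also: % is scaled to controls: 0 for no effect and ±100 for the full control effect; nearly all actives have a fitted effect of over 50% in size; the assay follows cell death caused by Vpr and the record does not say whether a fall means rescue or toxicity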
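Fission yeast strain RE007, carrying one chromosomally integrated HIV-1 vpr copy, was seeded at OD 0.01 in PMG+AL medium with 23 nL pinned compound. After 24 h at 30 °C and 99% humidity, viability was read by BacTiter-Glo luminescence.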
Numbers without * were called inactive; u = inconclusive; [ ] = another dose, or the depositor's remark. Potency is read from the fitted curve at half-maximal effect. A portion of the library (hit frequency here may not be typical).

SMILES	StopGo reporter	SARS PLpro yeast	RE007 growth inh
CCn1c(SCC(=O)Nc2ccc(N3CCOCC3)cc2)nnc1C1CC1	-13%	-1%	-8%
c1ccc(-c2sc3ccccc3c2-c2ccc(OCCN3CCOCC3)cc2)cc1	-22%	18%	7%
COc1cc2c(cc1OC)[C@@H](NC(=O)C(C)C)[C@H](OCc1ccccc1)C2	-26%	-1%	-4%
CC(C(=O)Nc1ccc2c(c1)OCO2)N1CCC(N2CCCCC2)CC1 (stereo not drawn)	-4%	-2%	6%
O=C(NCc1ccccc1)C(=O)NCC1OCCN1S(=O)(=O)c1ccc([N+](=O)[O-])cc1 (stereo not drawn)	-8%	1%	-5%
Cc1ccc(C)c(NC(=O)CSc2nc(C)cs2)c1	-3%	3%	-2%
CC(C)NC(=O)N(C)C[C@H]1Oc2c(cccc2N(C)C)C(=O)N([C@H](C)CO)C[C@@H]1C	33%[activator]	-12%	1%
C[C@H](CO)N1C[C@H](C)[C@@H](CN(C)S(=O)(=O)c2cccs2)Oc2ccc(NC(=O)Cn3cnnn3)cc2C1=O	-10%	-5%	3%
O=C(C1CCN(S(=O)(=O)c2ccccc2F)CC1)N1CCc2ccccc21	-18%	-1%	7%
O=C1OC[C@H](Cc2ccc3c(c2)OCO3)/C1=C\c1ccc2c(c1)OCO2	u	-2%	11%
CCO[C@H]1c2c(ccc3ccc(=O)oc23)OC(C)(C)[C@@H]1O	-18%	1%	10%
C[C@@H]1CN([C@H](C)CO)C(=O)Cc2cc(NC(=O)CCC(F)(F)F)ccc2O[C@@H]1CN(C)C(=O)NC1CCCCC1	-9%	-12%	0%
COc1ccc(C(=O)N2CCN(c3ccccc3OC)CC2)cc1	-8%	2%	-10%
O=S(=O)(c1cccc(-c2n[nH]c(=S)n2-c2cccc(C(F)(F)F)c2)c1)N1CCOCC1	-16%	0%	0%
OCC[C@H]1C[C@@H](O)[C@H](O)[C@@]2(CCc3ccccc3CO2)O1	-16%	-6%	11%
Cc1noc(C)c1NC(=O)Nc1cccc2c1O[C@H](CN(C)S(=O)(=O)c1cn(C)cn1)[C@@H](C)CN([C@H](C)CO)C2=O	-2%	-3%	6%
CCCCN1C(Nc2ccccc2)=NC[C@@H]1Cc1ccccc1	-26%	-1%	-11%
CC(C)CC1=NN2C(=N)/C(=C\c3coc4ccccc4c3=O)C(=O)N=C2S1	-23%	-6%	7%
CCCCNc1nnc(SCC(=O)c2c(N)n(C3CC3)c(=O)[nH]c2=O)s1	-11%	0%	0%
O=C(OCc1c(-c2ccccc2)ncc2ccccc12)c1cccc(Br)c1	-28%	1%	-11%
Cc1ccc(C(=O)Nc2ccn(C)n2)cc1	30%[activator]	0%	-11%
CC[C@]12c3[nH]c4ccc(Cl)cc4c3CCN1C(=O)[C@@H](CC(=O)NC/C=C(\C)CCC=C(C)C)C[C@@H]2C(=O)N1CCN(C(=O)C2CC2)CC1	u	-6%	1%
COC(=O)c1c(-c2ccc(OC)cc2)sc2ccc(OC)cc12	35%[activator]	-3%	-17%
O=C(Nc1ccc(Cl)cc1)Nc1ccc(Cl)c(Cl)c1	-24%	-15%	-5%
O=C(NC1CCCC1)C1CCN(C(=O)NCc2ccccc2)CC1	-22%	1%	-1%
CC(C)C[C@]1(c2ccccc2)ON(c2ccccc2C(F)(F)F)C1=O	-27%	0%	7%
O=C(COC(=O)CCNS(=O)(=O)c1ccccc1)NC1CC1	-15%	2%	8%
COc1ccc(CC(=O)Nc2cc(S(=O)(=O)Nc3ccc(OC)cc3)ccc2OC)cc1	-24%	-2%	8%
O=C1CSc2ccc(C(=O)NCc3ccccn3)cc2N1	-9%	3%	0%
COc1ccc(C(=O)N/N=C/c2ccc(N3CCOCC3)s2)cc1OC	-17%	1%	-15%
Cc1ccc(NC(=O)CSc2ccc(S(=O)(=O)N3CCCC3)cn2)cc1F	-11%	1%	-2%
Cc1noc(C)c1NC(=O)N(C)C[C@@H]1Oc2ccc(NC(=O)C3CCCCC3)cc2C(=O)N([C@@H](C)CO)C[C@H]1C	-5%	1%	-7%
COc1ccc(S(=O)(=O)N2CCOCC2)cc1NC(=O)c1cc(C)oc1C	-8%	1%	5%
COc1ccc(CNC(=O)COC(=O)c2ccc(Br)c(S(=O)(=O)N3CCOCC3)c2)cc1	-21%	1%	-7%
COc1ccc2c(C(=O)NCCCCO)c(-c3ccc(S(C)(=O)=O)cc3)sc2c1	34%[activator]	-16%	9%
COc1ccc(/C=C(/C#N)C(=O)Nc2ccc(O)cc2)cc1C(=O)O	-7%	0%	1%
C[C@@]12C(=O)Nc3cc(Cl)ccc3C(=O)N1[C@H]1c3cc(Br)ccc3OC[C@@H]1[C@@H]2c1ccccc1	-11%	1%	8%
CN1CCC(N(C)C(=O)c2cc(S(=O)(=O)N(C)c3ccccc3)ccc2Cl)CC1	-14%	0%	13%
C#CCOCCOCCOCCNc1nc(N2CCN(C(=O)[C@H](CCCCN)n3cc(CCCC)nn3)CC2)nc(N2CCN(C(=O)[C@H](CCCCN)n3cc(CCC(=O)O)nn3)CC2)n1	-3%	-1%	16%
CCOc1ccc(NC(=O)CN(C)C(=O)C2CSC3(C)CCC(=O)N23)cc1OCC (stereo not drawn)	-3%	-3%	-1%
O=C(C[C@H]1C/C=C\C[C@H](Cc2ccc(F)cc2)C(=O)OCCNC1=O)NCCO	-10%	0%	11%
O=C(CNC(=O)c1ccc(Cl)cc1Cl)OCC(=O)N1CCCC1	-2%	-3%	-10%
N#Cc1ccc(NC(=S)NC(=O)CCc2ccc(S(=O)(=O)N3CCOCC3)cc2)cc1	u	0%	-4%
Cc1noc(C)c1S(=O)(=O)N(C)C[C@H]1Oc2c(cccc2N(C)C)C(=O)N([C@H](C)CO)C[C@@H]1C	0%	6%	5%
Cc1cc(=O)[nH]c2c3ccccc3nn12	13%	-2%	-9%
O=S(=O)(c1ccc(SCCO)nc1)N1CCOCC1	-2%	6%	12%
CC1(C)CC(=O)C(N=Nc2ccc(-c3ccccc3)cc2)=C(O)C1	39%[activator]	0%	8%
Cn1nc(-c2ccccc2)cc1NC(=O)c1ccc(Cl)cc1	0%	3%	10%
COc1ccc(OCC(=O)N(C)CC2COc3ccccc3O2)cc1 (stereo not drawn)	0%	-6%	1%
CCCCCCCNC(=O)C1(CC2CC(c3cccc(Br)c3)=NO2)CCN(C(=O)C2CCCC2)CC1 (stereo not drawn)	0%	2%	4%
COc1cc(OC)cc(-c2c(C#Cc3ccsc3)c3cc(Br)ccc3n2C)c1	-18%	2%	-1%
O=C(C[C@H]1C/C=C\CC[C@@H](Cc2ccc(F)cc2)C(=O)O[C@@H](c2ccccc2)CNC1=O)N[C@@H](CO)Cc1ccccc1	-5%	-4%	1%
COc1ccc(NC(=O)CC2C(=O)Nc3ccccc3N2CC(=O)N2CCCC2)cc1 (stereo not drawn)	-10%	-2%	4%
COc1ccc2nc(NC(=O)CCc3ccc(OC)c(OC)c3)sc2c1	-1%	0%	-1%
O=C(Nc1ccc(S(=O)(=O)Nc2nccs2)cc1)c1cccc(N2C(=O)c3ccccc3C2=O)c1	23%	1%	12%
COc1ccc(C)cc1NC(=O)CNC(C)C(=O)Nc1cc(Cl)ccc1Cl (stereo not drawn)	-19%	-2%	-4%
COCCn1c(SCC(=O)NC2CC2)nnc1-c1ccc(Cl)cc1	6%	7%	1%
COc1cc(C#Cc2c(-c3cncn3C)n(C)c3ccc(-c4ccc5[nH]ccc5c4)cc23)cc(OC)c1	18%	-1%	-11%
Cc1ccc(S(=O)(=O)N2CCCCC2CCNC(=O)C(=O)Nc2ccccc2F)cc1 (stereo not drawn)	-21%	6%	-4%
Cc1ccc(C)c(N2CCN(C(=O)CCc3nc(-c4ccccc4Cl)no3)CC2)c1	u	-5%	6%
Next part:
SMILES	StopGo reporter	SARS PLpro yeast	RE007 growth inh
CSCCC(NC(=O)c1ccccc1Cl)C(=O)NCc1ccncc1 (stereo not drawn)	-3%	2%	-1%
C[C@H](CO)N1C[C@H](C)[C@H](CN(C)Cc2ccc(-c3ccccc3)cc2)Oc2ccc(NS(=O)(=O)c3ccccc3)cc2CC1=O	u	-9%	-11%
CC(c1ccc2c(c1)OCO2)n1c(=S)[nH]c2ccccc2c1=O (stereo not drawn)	-24%	-4%	4%
C/C(=N/NC(=O)c1ccco1)c1cccnc1	11%	-1%	12%
NC(=O)C1CCCN(C(=O)c2ccc3c(c2)NC(=O)CS3)C1 (stereo not drawn)	-2%	2%	-4%
CN(CC(=O)Nc1ccc(Cl)cc1)C(=O)COc1ncnc2ccccc12	1%	-1%	-4%
CCOc1ccccc1NC(=O)CN(C)S(=O)(=O)c1cnc[nH]1	2%	1%	-2%
O=C(N=C1N=C2C=CC=CN2Cc2ccccc21)c1ccc(S(=O)(=O)N2CCOCC2)cc1	9%	0%	-18%
COc1ccccc1OCCC(=O)OCC(=O)c1[nH]c(C)c(C(C)=O)c1C	-6%	-3%	-16%
Cc1ccc(/C=C/C(=O)OCC(=O)NC(C)c2ccccc2)o1 (stereo not drawn)	-3%	-11%	3%
Cc1noc(C)c1S(=O)(=O)Nc1ccc2c(c1)CC(=O)N([C@H](C)CO)C[C@H](C)[C@H](CN(C)S(=O)(=O)c1ccc(F)cc1)O2	-12%	8%	-12%
COc1ccc(N(CC(=O)NC2CCCCC2)S(=O)(=O)c2cccs2)cc1	-21%	6%	-3%
CCN1C(=O)[C@@H]2[C@H](C1=O)[C@@H]1C(=O)Nc3ccccc3C(=O)N1[C@@H]2c1cccc(C)c1	2%	3%	-4%
COc1ccccc1N1CCN(C(c2cccs2)C(C)NC(=O)c2cccnc2)CC1 (stereo not drawn)	-7%	2%	-25%
COc1ccc(CCNC(=O)CSc2nnc3ccc(-c4cccnc4)nn23)cc1OC	-12%	0%	14%
Cc1cc(/C=N/NC(=O)c2ccccc2F)c(C)n1-c1ccccc1	26%	1%	7%
CC(=O)Nc1cc(Cl)c(N=Cc2ccc(O)cc2O)cc1Cl	-12%	0%	10%
NC(=O)C1CC(=O)N(c2ccc(OCC(=O)Nc3ccccc3F)cc2)C1 (stereo not drawn)	59%[activator]	-23%	3%
CCCNC(=O)CN1CCN(S(=O)(=O)c2ccc(Br)s2)CC1	-23%	4%	3%
Cn1nc(C(=O)OCC(=O)Nc2cc(Cl)ccc2C#N)c2ccccc2c1=O	-7%	0%	-3%
O=C(COC(=O)C1CCCCC1)Nc1cccc(Br)c1	-13%	-8%	-10%
O=S(=O)(Nc1cc(S(=O)(=O)N2CCOCC2)ccc1NCC1CCCO1)c1ccccc1 (stereo not drawn)	30%	2%	-7%
O=C1N[C@H](Cc2ccccc2)COC(=O)[C@H](Cc2ccc(F)cc2)C/C=C\C[C@H]1CC(=O)N(CCO)Cc1ccccc1	-22%	-4%	4%
COc1ccc(/C=C(\NC(=O)c2ccc(C)cc2)C(=O)Nc2c(C)n(C)n(-c3ccccc3)c2=O)cc1	5%	0%	-4%

4 compounds from above, reduced to SARS PLpro yeast and StopGo reporter:
SMILES | SARS PLpro yeast | StopGo reporter
C[C@@]12C(=O)Nc3cc(Cl)ccc3C(=O)N1[C@H]1c3cc(Br)ccc3OC[C@@H]1[C@@H]2c1ccccc1 | 1% | -11%
O=C(COC(=O)CCNS(=O)(=O)c1ccccc1)NC1CC1 | 2% | -15%
O=C(CNC(=O)c1ccc(Cl)cc1Cl)OCC(=O)N1CCCC1 | -3% | -2%
COc1cc2c(cc1OC)[C@@H](NC(=O)C(C)C)[C@H](OCc1ccccc1)C2 | -1% | -26%

(more compounds)
SMILES	StopGo reporter	SARS PLpro yeast	RE007 growth inh
O=C(CSc1ccccn1)N/N=C/c1c[nH]c2ccccc12	8%	6%	23%
CCc1sc(C(=O)NNC(=O)CNC(=O)c2ccccc2F)cc1C	-19%	-8%	7%
Cc1csc(SC(C)C(=O)Nc2ccccc2C)n1 (stereo not drawn)	-5%	14%[6.58 µM]	-6%
N/C(Cc1ccc(Cl)cc1Cl)=N\OC(=O)c1ccccc1	9%	-36%	u
CCN(C[C@H]1N[C@@](Cc2ccccc2)(C(=O)OC)[C@H]2C(=O)N(C)C(=O)[C@@H]12)C(=O)Nc1ccc(F)cc1	0%	2%	-5%
COc1ccc(C(=O)Oc2ccc(/C=N/NC(=O)c3cccnc3)cc2OC)cc1	-19%	3%	-5%
CCC(CC)NC(=O)c1cc(S(=O)(=O)N2CCCCC2)ccc1N1CCOCC1	5%	0%	-6%
Cc1c(Cl)cccc1NC(=O)CCC(=O)NNC(=O)CCC(=O)O	-13%	0%	3%
Cc1ccc(N2C(=O)C3C4C=CC(CNC(=S)N5CCN(c6ccccc6)CC5)(O4)C3C2=O)cc1 (stereo not drawn)	u	-13%	5.6µM*

A second format for 3 compounds above.
SMILES | StopGo reporter | SARS PLpro yeast | RE007 growth inh
CCN(C[C@H]1N[C@@](Cc2ccccc2)(C(=O)OC)[C@H]2C(=O)N(C)C(=O)[C@@H]12)C(=O)Nc1ccc(F)cc1 | 0% | 2% | -5%
COc1ccc(C(=O)Oc2ccc(/C=N/NC(=O)c3cccnc3)cc2OC)cc1 | -19% | 3% | -5%
CCC(CC)NC(=O)c1cc(S(=O)(=O)N2CCCCC2)ccc1N1CCOCC1 | 5% | 0% | -6%
